# Sfp inh – Sfp phosphopantetheinyl transferase inhibition; Potency, µM, for the others: max response, negative = inhibition, most hits filed as inhibitors; AID 1490; Biochemical Sfp PPTase activity, qHTS; actives 3.5% (n = 310,000); active = well fitted inhibition curve with a large enough effect; inconclusive = small, poorly fitted or top-dose-only effect, or another doubt; inactive = no such curve, though single readings can be large or run the other way;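 note: the enzyme is Sfp with the accession as filed and its product quenches rhodamine fluorescence; potency is the fitted concentration of half-maximal effect; 0% = enzyme reaction without inhibitor and -100% = no enzyme wells; top concentration of the series not given in the record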
#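 Buffer: 50 mM Hepes-Na pH 7.6, 10 mM MgCl2, 0.01% Nonidet P-40, 0.01% BSA. Enzyme 15 nM, pre-exposed to compound 15 min; substrates then added and fluorescence change tracked over 30 min.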
# D2 potentiator – positive allosteric modulators of human D2 dopamine receptor; AID 624464; DiscoveRx D2 beta-arrestin cells, luminescence, 90 min; 100% = 57 uM dopamine signal; P14416; potentiation, % (no concentration beside the values); actives 0.23% (n = 360,000); active = potentiation of 50% or more; inconclusive = 30% to 50%; inactive = 30% or less;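 note: compound concentration not given in the record; tested on top of an EC20 dose of dopamine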
#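 PathHunter beta-arrestin assay in DiscoveRx D2 cells. Compounds were added with an EC20 of dopamine (50 nM final) for 90 min at 37 deg C. Luminescence was read 1 h after detection reagent, with 57 uM dopamine as the EC100 control.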
# TRPV1 PAM – human TRPV1 potentiation | TRPV1-expressing cells, Fluo-8 calcium influx, capsaicin EC20 potentiation; host cell line not named in the record; control for the full effect not named in the record | actives 0.02% (n = 320,000) | AID 540277 | potentiation, % at 8.33 µM; active means potentiation above 80%; inconclusive means 30% to 80%; inactive means below 30%; note: 0% is about no effect
# Target sequence (Q8NER1 whole entry, looked up): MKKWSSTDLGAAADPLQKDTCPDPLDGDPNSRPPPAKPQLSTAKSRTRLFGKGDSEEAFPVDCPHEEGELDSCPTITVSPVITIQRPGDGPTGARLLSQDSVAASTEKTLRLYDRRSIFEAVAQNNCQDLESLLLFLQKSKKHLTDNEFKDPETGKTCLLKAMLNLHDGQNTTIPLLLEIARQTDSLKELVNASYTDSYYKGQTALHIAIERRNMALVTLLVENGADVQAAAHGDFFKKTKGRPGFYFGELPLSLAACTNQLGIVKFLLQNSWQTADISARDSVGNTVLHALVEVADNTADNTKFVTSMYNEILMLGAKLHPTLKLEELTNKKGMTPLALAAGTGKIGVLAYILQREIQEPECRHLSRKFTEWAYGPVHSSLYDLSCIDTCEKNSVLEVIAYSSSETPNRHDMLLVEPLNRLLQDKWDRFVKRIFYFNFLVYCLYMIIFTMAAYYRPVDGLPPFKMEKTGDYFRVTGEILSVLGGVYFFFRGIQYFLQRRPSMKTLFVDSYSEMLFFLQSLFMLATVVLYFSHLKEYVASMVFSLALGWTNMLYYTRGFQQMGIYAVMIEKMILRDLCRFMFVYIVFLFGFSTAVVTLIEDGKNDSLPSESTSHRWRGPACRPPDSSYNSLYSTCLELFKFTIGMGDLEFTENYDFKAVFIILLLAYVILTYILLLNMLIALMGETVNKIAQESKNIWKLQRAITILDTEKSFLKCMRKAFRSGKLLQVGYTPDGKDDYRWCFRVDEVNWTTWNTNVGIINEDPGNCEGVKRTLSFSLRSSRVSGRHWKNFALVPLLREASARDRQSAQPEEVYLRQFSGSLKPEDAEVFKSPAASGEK
#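 Fluo-8 calcium influx in TRPV1-expressing cells, kinetic read (ex 480/em 520 nm). Compound added and read 3 min for agonist activity, followed by capsaicin at EC20 final and 2 min further read for enhancement.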
# CtBP-E1A inh – blocks the CtBP interaction with E1A; AlphaScreen GST-E1A/His-CtBP binding, 1536-well; active compounds read low; control for the full effect not named in the record; activity change, % (no concentration beside the values); actives 0.49% (n = 340,000); in the data active means activity change below about -65%; inconclusive means about -30% to -65%; inactive means above about -30%; note: % is set by controls: 0 for no effect and ±100 for the full control effect
#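 GST-E1A and His-tagged CtBP (125 nM each as 5X stock) were preincubated with pin-transferred compound for 2 h at 37 °C in the dark, then glutathione donor and nickel acceptor beads were added for 1 h before AlphaScreen reading.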
# Six1-Eya2 blk – inhibitors of human Six1/Eya2 interaction | Q15475+O00167 | AlphaScreen GST-Six1/His-Eya2 binding, biochemical; active compounds read low; control for the full effect not named in the record | activity change, % (no concentration beside the values) | actives 0.56% (n = 360,000) | AID 651725; in the data active = activity change below about -65%; inconclusive = about -30% to -65%; inactive = above about -30%; note: % is set by controls: 0 for no effect and ±100 for the full control effect
#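 AlphaScreen with GST-Six1 and His-Eya2 (5X mix: 250 nM and 500 nM), glutathione donor and nickel acceptor beads; buffer 50 mM Tris pH 8.0, 300 mM NaCl, 1 mM TCEP; 1 h at 37 C in the dark.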
# D2 ag – human D2 receptor agonism in beta-arrestin assay; AID 624465; DiscoveRx PathHunter D2 beta-arrestin, luminescence, 90 min; 100% = 57 uM dopamine signal; actives 0.084% (n = 360,000); activation, % (concentration not given with the values); in the data active = activation above about 40%; inconclusive = about 15% to 40%; inactive = below about 15%; note: compound concentration not given in the record; the text of the record calls up to 30% inactive
#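 Agonist mode: compounds alone added to overnight-plated D2 PathHunter cells for 90 min at 37 C, with 57 uM final dopamine (EC100) defining full response. Beta-arrestin recruitment detected by chemiluminescent reagent, read after 1 h at ambient temperature.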
# PINK1 modulator – changes PINK1 expression; PINK1 immunofluorescence, high-content cytometry, 24 h; Potency, µM (series often up to 76.6 µM), inactives show top-dose activation (PINK1 increase), hits mostly activators; actives 0.2% (n = 410,000); active = well fitted activation curve with a large enough effect; inconclusive = small, poorly fitted or top-dose-only effect; inactive = flat fitted curve, though single readings scatter; cell line not stated here;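 note: potency is the fitted concentration of half-maximal effect; % of control where 0% means no effect; nearly all actives have a fitted effect of over 65% in size; a mitochondrial uncoupler was the plate control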
#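 A stable cell line was treated with compounds at 5 concentrations for 24 hours, with CCCP as control. PINK1 levels and mitochondrial localization were measured by immunofluorescence with mitochondrial, cell and nuclear markers after fixation, read by laser-scanning cytometry.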
# Active calls of the source: *; ? = inconclusive; . = no result given; & = joins results of further samples; [ ] = remark or other dose.
# Keys – A = Sfp inh; B = D2 potentiator; C = TRPV1 PAM; D = CtBP-E1A inh; E = Six1-Eya2 blk; F = D2 ag; G = PINK1 modulator
Cc1cccc(CN2CCC(C(=O)Nc3cccc(-c4cscn4)c3)CC2)n1
  A: 5%	B: -19	C: -25	D: .	E: -7	F: -3.7	G: -0.9%

COc1ccc(-c2nnc(SCC(=O)NNC(=O)c3ccc(C)cc3)o2)cc1
  A: ?	B: 6	C: -4	D: -11	E: 4	F: -0.4	G: 0.4%

O=C(Nc1cccc(S(=O)(=O)NC2=NCCCCC2)c1)c1cc(-c2ccccc2)nc2ccccc12
  A: 23%	B: 4	C: 19	D: -5	E: 1	F: 0.7	G: -0.6%

COc1ccccc1N1CCN(C(=O)C(C)N(c2ccc(C)c(C)c2)S(C)(=O)=O)CC1 (centres undefined)
  A: 6%	B: -6	C: 0	D: 2	E: 6	F: 2.1	G: 3.3%

O=C(Nc1cc2c(=O)n(-c3ccc(Oc4ccccc4)cc3)ccc2oc1=O)c1ccccc1
  A: 16%	B: -17	C: 3	D: -15	E: 9	F: -1.9	G: -0.3%

C[C@H]1CN([C@@H](C)CO)C(=O)CCCn2nncc2CO[C@@H]1CN(C)S(=O)(=O)c1ccc(-n2cccn2)cc1
  A: .	B: 3	C: .	D: 6	E: -4	F: -7.7	G: 0.7%

CC(C)(C)NC(=O)CON=C1c2ccccc2-c2ccccc21
  A: -23%	B: -7	C: 9	D: -1	E: 12	F: -3.1	G: 11%

Cn1c(NNC(=O)c2ccc(C(C)(C)C)cc2)cc(=O)n(C)c1=O
  A: -17%	B: 0	C: 1	D: .	E: -2	F: -3.2	G: 1.3%

CCc1nnc(NC(=O)CCc2ccccc2OC)s1
  A: 4%	B: 0	C: -5	D: 2	E: 2	F: 0.2	G: -0.6%

Cc1cc(C)c(S(=O)(=O)N(CC(=O)O)CC(=O)O)c(C)c1
  A: -20%	B: -12	C: 15	D: 7	E: 2	F: -2.6	G: .

COC(=O)c1c(NC(=O)C(=O)NCCCN2CCOCC2)sc2c1CC(C)(C)OC2
  A: 12%	B: -1	C: 18	D: -1	E: 7	F: 4.5	G: 1.2%

CN(C)S(=O)(=O)NCCNC(=O)c1cc(OCC(F)(F)F)ccc1OCC(F)(F)F
  A: 10%	B: 6	C: -2	D: 24	E: 12	F: 0.2	G: 0.2%

NC(=O)CSc1nnc(-c2ccco2)n1-c1ccccc1
  A: 7%	B: -5	C: -12	D: .	E: -2	F: 1.5	G: 1.2%

Cc1ccc(NC(=O)CN2CCc3ccccc3C2)cc1S(=O)(=O)N(C)C
  A: -33%	B: -9	C: -4	D: 0	E: 0	F: 8.3	G: 0.1%

O=C(CSc1nnc(CNC(=O)c2c(F)cccc2Cl)o1)c1ccccc1
  A: 14%	B: -5	C: 5	D: -2	E: 0	F: -3.7	G: -0.5%

CC(C)(C)c1nnc(NC(=O)C2c3ccccc3Oc3ccccc32)s1
  A: 2.8µM*	B: -15	C: 3	D: .	E: -2	F: -5.3	G: 11%

O=C(CS(=O)CC(=O)NC12CC3CC(CC(C3)C1)C2)Nc1ccc(F)cc1 (centres undefined)
  A: 20%	B: -5	C: 2	D: -8	E: -4	F: -0.1	G: 1.4%

O=C(CSc1nc2nn(-c3ccccc3)c(=O)c-2c2n1CCCCC2)Nc1ccc(F)cc1F
  A: .	B: -3	C: 11	D: -10	E: -6	F: 1.0	G: 0.4%

NC(=O)c1ccsc1NC(=O)c1nc(-c2ccccc2)n(-c2ccccc2)n1
  A: -4%	B: -6	C: 1	D: 3	E: -6	F: 2.2	G: -4.9%

COC(=O)c1ccc(C(=O)OC)c(NC(=O)CN2CCCCC2)c1
  A: 9%	B: -5	C: -9	D: -16	E: -4	F: -1.4	G: 0.4%

Cn1c(CCN2CCCCC2)nc2cc(NS(=O)(=O)c3ccccc3)ccc21
  A: 9%	B: -13	C: 6	D: 0	E: 5	F: -4.1	G: 5.2%

O=[N+]([O-])c1ccc(-[n+]2ccc3ccccc3c2)c([N+](=O)[O-])c1
  A: .	B: -6	C: 17	D: -12	E: -20	F: 2.5	G: -1.9%

c1ccc(-c2cn(C[C@H]3CC[C@@H]([C@@H]4CC[C@H](Cn5cc(-c6ccccc6)nn5)O4)O3)nn2)cc1
  A: 19%	B: -4	C: 21	D: 5	E: 2	F: -1.1	G: 2.4%

CCOC(=O)c1c(C)[nH]c(C)c1S(=O)(=O)NCc1ccccc1OCC
  A: 11%	B: -7	C: 7	D: -5	E: 1	F: -4.7	G: 0.0%

COc1cc(OC)cc(-c2nnc(SCC(=O)N(Cc3ccccc3)C(C)(C)C)o2)c1
  A: -2%	B: -5	C: -16	D: 11	E: 10	F: 0.2	G: -1.7%[38.3 µM]

Cc1ccc(NC(=O)CCNC(=O)c2ccccc2)cc1F
  A: 15%	B: -5	C: 20	D: 6	E: 6	F: -4.8	G: 3.7%

O=C(CCn1c(=O)oc2ccccc21)NCCN1CCc2ccccc2C1
  A: -8%	B: -14	C: 22	D: 1	E: 0	F: -2.2	G: 1.2%

CN(Cc1nccs1)C(=O)C1CCC(=O)N(CCc2ccc(Cl)cc2)C1 (centres undefined)
  A: 12%	B: -6	C: 6	D: 0	E: 2	F: -0.8	G: 0.4%

Cc1cc(C(=O)CSc2nnc(CCC(N)=O)n2C)c(C)n1C1CC1
  A: .	B: -3	C: 0	D: 11	E: -7	F: 5.3	G: 1.1%

NC(=O)CC(NC(=O)Cc1ccc(Br)cc1)c1ccc(N2CCN(c3ccccn3)CC2)c([N+](=O)[O-])c1 (centres undefined)
  A: 5%	B: -4	C: 4	D: 0	E: -2	F: -1.7	G: -1.0%

C/C(=N\NC(=O)c1ccc(N(C)C)cc1)c1ccc(C)c(C)c1
  A: 14%	B: -7	C: -15	D: -9	E: -6	F: -4.1	G: -0.6%

C[C@H](NC(=O)C1CCN(S(=O)(=O)c2ccccc2)CC1)C(=O)NCc1ccc(F)cc1
  A: 7%	B: -14	C: -11	D: .	E: 2	F: -6.4	G: 1.1%

COc1ccc(CNC(=O)C(=O)NCc2cccnc2)cc1
  A: 4%	B: -4	C: 3	D: 6	E: 5	F: 2.1	G: 0.2%

N#Cc1ccsc1NC(=O)CSc1nncs1
  A: .	B: -1	C: .	D: -6	E: -7	F: -1.0	G: 1.2%

O=S(=O)(Nc1ccc(Cc2ccncc2)cc1)c1ccc(Br)s1
  A: 10%	B: 4	C: 12	D: -4	E: 1	F: 0.7	G: -3.0%

Cc1ccc2cccc(Oc3ncnc4sc(C)c(C)c34)c2n1
  A: 1%	B: -4	C: -2	D: -16	E: 0	F: 1.8	G: -0.2%

CC(C)CCN1CCC[C@]2(N[C@H](c3ccccc3)[C@@H]3C(=O)N(Cc4ccccc4)C(=O)[C@@H]32)C1=O
  A: .	B: 1	C: .	D: 2	E: 5	F: -7.0	G: -0.4%

O=C(NCCCN1CCOCC1)c1ccc(CS(=O)(=O)Cc2ccccc2Cl)o1
  A: -12%	B: -14	C: 6	D: 4	E: 0	F: -5.0	G: 0.6%

COc1cccc(NC(=O)C(C)OC(=O)CCCNC(=O)c2ccc(Cl)cc2)c1 (centres undefined)
  A: 8%	B: -26	C: -17	D: 0	E: 10	F: -5.6	G: -0.1%

O=C(COC(=O)/C=C/c1ccco1)NCCN1C(=O)CSC1=O
  A: .	B: -6	C: .	D: -2	E: -4	F: -3.8	G: 1.6%

CCOc1ccc(CCNC(=O)CCOc2cc(C)ccc2C)cc1OCC
  A: -14%	B: -2	C: 10	D: 0	E: 8	F: 6.1	G: 1.1%

Cc1csc(=O)n1CC(=O)OCC(=O)Nc1ccc(F)c(F)c1
  A: .	B: ?	C: 22	D: 8	E: 0	F: 0.3	G: -2.6%

CCOC(=O)CSc1nc2ccccc2n1CC(=O)N1CCN(c2ccccc2)CC1
  A: -4%	B: -12	C: -2	D: 5	E: 0	F: -3.1	G: -6.3%[38.3 µM]

COc1cc(OC)nc(Nc2nc(C(N)COCc3ccccc3)cs2)n1 (centres undefined)
  A: .	B: -7	C: .	D: ?	E: ?	F: 5.4	G: 4.4%

Oc1ccccc1CN1CCN(C(O)(c2ccccc2)c2ccccc2)CC1
  A: -8%	B: -4	C: -12	D: -5	E: -7	F: -2.8	G: ?

Cc1ccc(NS(=O)(=O)c2ccc3c(c2)CCC(=O)N3)cc1
  A: .	B: -2	C: -20	D: 0	E: 1	F: 2.5	G: 0.5%&-0.8%

O=C1c2ccccc2C(=O)N1CSc1nnc(Nc2ccccc2)s1
  A: 2%	B: -6	C: 3	D: .	E: 5	F: -2.3	G: 5.7%

O=C(NCCc1ccc(Cl)cc1)c1cc(-c2ccccn2)nc2ccccc12
  A: -15%	B: 5	C: 3	D: 1	E: 0	F: 4.9	G: 6.8%

Cc1ccc(-c2noc(CCC(=O)N3CCN(c4cc(C)ccc4C)CC3)n2)cc1
  A: .	B: -1	C: .	D: 3	E: 3	F: 0.8	G: 2.6%

# Exported with values under each structure: 2 of the compounds above.
# Fields: Sfp inh | D2 potentiator | TRPV1 PAM | CtBP-E1A inh | Six1-Eya2 blk | D2 ag | PINK1 modulator
O=C(NCCc1ccc(Cl)cc1)c1cc(-c2ccccn2)nc2ccccc12
  -15% | 5 | 3 | 1 | 0 | 4.9 | 6.8%
Cc1ccc(-c2noc(CCC(=O)N3CCN(c4cc(C)ccc4C)CC3)n2)cc1
  . | -1 | . | 3 | 3 | 0.8 | 2.6%

# Compounds above containing an aryl methoxy group, in the order listed:
# Keys – A = Sfp inh; B = D2 potentiator; C = TRPV1 PAM; D = CtBP-E1A inh; E = Six1-Eya2 blk; F = D2 ag; G = PINK1 modulator
COc1ccc(-c2nnc(SCC(=O)NNC(=O)c3ccc(C)cc3)o2)cc1
  A: ?	B: 6	C: -4	D: -11	E: 4	F: -0.4	G: 0.4%

COc1ccccc1N1CCN(C(=O)C(C)N(c2ccc(C)c(C)c2)S(C)(=O)=O)CC1 (centres undefined)
  A: 6%	B: -6	C: 0	D: 2	E: 6	F: 2.1	G: 3.3%

CCc1nnc(NC(=O)CCc2ccccc2OC)s1
  A: 4%	B: 0	C: -5	D: 2	E: 2	F: 0.2	G: -0.6%

COc1cc(OC)cc(-c2nnc(SCC(=O)N(Cc3ccccc3)C(C)(C)C)o2)c1
  A: -2%	B: -5	C: -16	D: 11	E: 10	F: 0.2	G: -1.7%[38.3 µM]

COc1ccc(CNC(=O)C(=O)NCc2cccnc2)cc1
  A: 4%	B: -4	C: 3	D: 6	E: 5	F: 2.1	G: 0.2%

COc1cccc(NC(=O)C(C)OC(=O)CCCNC(=O)c2ccc(Cl)cc2)c1 (centres undefined)
  A: 8%	B: -26	C: -17	D: 0	E: 10	F: -5.6	G: -0.1%

COc1cc(OC)nc(Nc2nc(C(N)COCc3ccccc3)cs2)n1 (centres undefined)
  A: .	B: -7	C: .	D: ?	E: ?	F: 5.4	G: 4.4%
